Bioassay records from PubChem.
Cruzain noTriton – blocks cruzain activity in detergent-free assay | purified cruzain, Z-FR-AMC fluorescence, no detergent | Potency, µM, for the others: max response, negative = inhibition, actives largely listed as inhibitors | actives 2.3% (n = 200,000) | AID 1476;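 also: plate controls were enzyme without inhibitor for no effect and buffer without enzyme for full effect; nearly all actives have a fitted effect of over 40% in size; top concentration of the series not given in the record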
Target sequence (P25779 123-467 limits assumed): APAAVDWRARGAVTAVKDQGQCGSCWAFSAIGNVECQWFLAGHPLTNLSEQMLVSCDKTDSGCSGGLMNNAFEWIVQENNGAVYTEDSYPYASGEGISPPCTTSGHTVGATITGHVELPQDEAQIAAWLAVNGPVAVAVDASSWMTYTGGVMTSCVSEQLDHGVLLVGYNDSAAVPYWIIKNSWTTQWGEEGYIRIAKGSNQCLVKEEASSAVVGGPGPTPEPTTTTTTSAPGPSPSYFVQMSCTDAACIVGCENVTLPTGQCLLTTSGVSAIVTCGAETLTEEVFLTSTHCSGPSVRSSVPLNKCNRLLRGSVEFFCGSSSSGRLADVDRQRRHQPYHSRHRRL
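Purified cruzain at 1.5 nM, pre-incubated 15 min with compound at room temperature in 100 mM sodium acetate pH 5.5, 5 mM DTT, 0.00005% Triton X-100. Reaction started with 2 uM Z-FR-AMC; AMC fluorescence increase over 60 s gives rate.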
SARS PLP yeast – inhibitors of SARS-CoV papain-like protease in yeast. Potency, µM (highest dose often 32.9 µM), for the others: at the top dose activity, positive = growth rescue. S. cerevisiae expressing SARS-CoV PLpro, growth rescue; control for the full effect not named in the record. AID 485353. actives 0.19% (n = 330,000); active means well fitted rising curve with a large enough effect; inconclusive means small, poorly fitted or top-dose-only effect; inactive means no such curve, though single readings can be large or run the other way; also: 0% is about no effect; nearly all actives have a fitted effect of over 55% in size; growth read by luminescence after 48 h
StopGo reporter – lowers the luciferase signal of an FMDV 2A StopGo reporter; human cells with a luciferase reporter of 2A StopGo recoding; control for the full effect not named in the record; actives 1.2% (n = 410,000); AID 1159524; Potency, µM (highest dose often 57.9 µM), inactives show at the highest dose signal change, negative = less light; active = well fitted falling curve with a large enough effect; inconclusive = small, poorly fitted or top-dose-only effect; inactive = no such curve, though single readings can be large or run the other way; tested in HEK293T cells; also: % is scaled to controls: 0 for no effect and ±100 for the full control effect; nearly all actives have a fitted effect of over 45% in size; luciferase light after 4 h
Cruzain inh Det – cruzain (T. cruzi) inhibition with detergent. P25779. purified cruzain, Z-FR-AMC fluorescence, 0.01% Triton. Potency, µM, for the others: max response, negative = inhibition, most hits filed as inhibitors. actives 0.43% (n = 200,000). AID 1478;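 also: plate controls were neutral wells for no effect and buffer without enzyme for full effect; nearly all actives have a fitted effect of over 40% in size; top concentration of the series not given in the record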
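Read-out: AMC fluorescence (360 nm excitation, 450 nm emission), four reads over 2 min, first-to-third difference used. Conditions: cruzain 1.5 nM, Z-FR-AMC 2 uM, pH 5.5 acetate, 5 mM DTT, 0.01% Triton X-100.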
LASV entry inh – Lassa virus entry inhibition; Lassa virus pseudotype entry inhibition, cell reporter; control for the full effect not named in the record; Potency, µM (doses to about 37.9 µM), for the others: at the top dose activity change, negative = inhibition, usual class: inhibitors; actives 1.2% (n = 300,000); AID 540256; active means well fitted inhibition curve with a large enough effect; inconclusive means small, poorly fitted or top-dose-only effect, or effect the other way; inactive means flat fitted curve, though single readings scatter; tested in HEK293 cells; also: % is scaled to controls: 0 for no effect and ±100 for the full control effect; nearly all actives have a fitted effect of over 50% in size; luciferase read-out
NS1 inh – inhibitors of influenza NS1 protein function; Potency, µM (top dose mostly 46.1 µM), without a hit: at the highest dose activity, positive = more growth; AID 2326; actives 0.4% (n = 270,000); S. cerevisiae slowed by influenza A NS1, growth recovery by OD600; active means well fitted rising curve with a large enough effect; inconclusive means small, poorly fitted or top-dose-only effect; inactive means no such curve, though single readings can be large or run the other way; also: nearly all actives have a fitted effect of over 50% in size
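Compounds were scored for reversing the slow growth caused by influenza A NS1 in S. cerevisiae, measured by optical density at 600 nm. Assay medium contained 2% galactose at pH 6.0; NS1-free yeast of the same strain were the positive control.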
MARV entry inh – inhibitors of Marburg virus binding or cell entry; AID 540276; Marburg virus pseudotyped entry inhibition, cell reporter; control for the full effect not named in the record; about a third of the inactives were read at about 46 µM; actives 1.8% (n = 300,000); Potency, µM (doses to about 37.8 µM), without a hit: top-dose activity change, negative = inhibition, hits mostly inhibitors; active = well fitted inhibition curve with a large enough effect; inconclusive = small, poorly fitted or top-dose-only effect, or effect the other way; inactive = flat fitted curve, though single readings scatter; tested in HEK293 cells; about a fifth of its hits are not listed in these tables; also: % is scaled to controls: 0 for no effect and ±100 for the full control effect; luciferase read-out
RE007 growth inh – less growth of the S. pombe RE007 Vpr strain | S. pombe RE007 Vpr strain, BacTiter-Glo ATP luminescence, 24 h; control for the full effect not named in the record | Potency, µM (series often up to 92.2 µM), for the others: top-dose activity change, negative = less growth | actives 0.21% (n = 360,000) | AID 651644; active = well fitted falling curve with a large enough effect; inconclusive = small, poorly fitted or top-dose-only effect; inactive = no such curve, though single readings can be large or run the other way;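 also: % is scaled to controls: 0 for no effect and ±100 for the full control effect; nearly all actives have a fitted effect of over 50% in size; the assay follows cell death caused by Vpr and the record does not say whether a fall means rescue or toxicity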
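Fission yeast strain RE007, carrying one chromosomally integrated HIV-1 vpr copy, was seeded at OD 0.01 in PMG+AL medium with 23 nL pinned compound. After 24 h at 30 °C and 99% humidity, viability was read by BacTiter-Glo luminescence.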
* hit, by the source's call; & = joins results of further samples; [ ] = another dose, or the depositor's remark. Unless noted, calls follow the shape of the dose curve; as a rule, active = well fitted curve in the direction sought with a large enough effect; inconclusive = small, poorly fitted or top-dose-only effect, or another doubt; inactive = no such curve, though single readings can be large; an effect the other way counts as inactive or inconclusive. Potency is read from the fitted curve at half-maximal effect.

What do the screens show for `Cc1ccc(Nc2nc(C(=O)NCc3ccco3)cs2)cc1`?
Cruzain noTriton: -1%; SARS PLP yeast: -12%; StopGo reporter: -8%; Cruzain inh Det: -6.1%; LASV entry inh: inconclusive; NS1 inh: -36%; MARV entry inh: inconclusive; RE007 growth inh: -18%

What do the screens show for `O=C(CCSCc1cccc(F)c1)NCCc1ccccc1`?
Cruzain noTriton: 15%; SARS PLP yeast: -2%; StopGo reporter: -1%&6%; Cruzain inh Det: 2.1%; LASV entry inh: 17%&23%[46.1 µM]; NS1 inh: -37%; MARV entry inh: 25%[46.1 µM]; RE007 growth inh: -4%

How did CCOc1ccccc1CN1CCN(C2CCC2)CC1CCO (stereo unspecified) do in these assays?
SARS PLP yeast: 0%; StopGo reporter: -13%; LASV entry inh: 0%[46.1 µM]; NS1 inh: 10%; MARV entry inh: 0%[46.1 µM]; RE007 growth inh: -14%

How did C=C1CSc2nc(=O)c3c4c(sc3n21)CCC4 do in these assays?
Cruzain noTriton: -5%; SARS PLP yeast: inconclusive; StopGo reporter: 1%; Cruzain inh Det: -0.2%; LASV entry inh: 2%; NS1 inh: -3%; MARV entry inh: -8%; RE007 growth inh: 7%

How did COc1ccc(Nc2cc(C)nc3c(C)cccc23)cc1OC do in these assays?
SARS PLP yeast: 2%; StopGo reporter: 0%; LASV entry inh: -20%; NS1 inh: -6%; MARV entry inh: -27%; RE007 growth inh: -4%

Results for CCCCC1CCC(c2nc(-c3cccnc3)no2)CC1 (stereo unspecified) ?
Cruzain noTriton: 28%; SARS PLP yeast: 7%; StopGo reporter: -4%; Cruzain inh Det: -6.7%; LASV entry inh: 11%; NS1 inh: 7%; MARV entry inh: 9%[46.1 µM]; RE007 growth inh: 8%

How did CC(C)(C)C(=O)Nc1cccc2[nH]ncc12 do in these assays?
SARS PLP yeast: 1%; StopGo reporter: -7%; LASV entry inh: -4%; MARV entry inh: 12%; RE007 growth inh: -6%

How did COCCCNC(=O)CN1CCN(Cc2ccc(Cl)cc2)C1=O do in these assays?
Cruzain noTriton: -1%; SARS PLP yeast: 1%; StopGo reporter: -4%; Cruzain inh Det: 6.4%; NS1 inh: -1%; RE007 growth inh: 1%

Results for CC(C)Cn1c(N)c(C(=O)COC(=O)Cc2cccs2)c(=O)n(C)c1=O ?
SARS PLP yeast: -4%; StopGo reporter: inconclusive; LASV entry inh: -25%; NS1 inh: 7%; MARV entry inh: -20%; RE007 growth inh: 5%

What do the screens show for `CC(C)CC(NC(=O)OC(C)(C)C)C(=O)NC(C(=O)NC(C)C(N)=O)C(C)C` (stereo unspecified)?
Cruzain noTriton: 3%; SARS PLP yeast: -4%; StopGo reporter: 1%; Cruzain inh Det: -5.6%; LASV entry inh: -1%; NS1 inh: -12%; MARV entry inh: 15%; RE007 growth inh: 13%

What do the screens show for `O=c1nc(-c2ccccc2)nc(-c2ccccc2)[nH]1`?
SARS PLP yeast: -1%; StopGo reporter: -7%; LASV entry inh: 12%; NS1 inh: 2%; MARV entry inh: 0%[46.1 µM]; RE007 growth inh: 4%

How did Cn1c(SCc2nnc3n2CCCCC3)nc2ccccc21 do in these assays?
Cruzain noTriton: -4%; SARS PLP yeast: -1%; Cruzain inh Det: 1.8%; LASV entry inh: 7%; NS1 inh: 5%; MARV entry inh: 2%; RE007 growth inh: 15%

What do the screens show for `COc1cccc(NC(=O)C/C(C)=N/NC(=O)C2CCCCC2)c1`?
SARS PLP yeast: 1%; StopGo reporter: 11%; LASV entry inh: 2%; NS1 inh: -1%; MARV entry inh: 0%; RE007 growth inh: -7%

Results for CC1CCCCN1C(=O)/C(=C\c1ccccc1)c1ccccc1 (stereo unspecified) ?
Cruzain noTriton: 1%; SARS PLP yeast: -6%; StopGo reporter: -15%; Cruzain inh Det: -1.9%; LASV entry inh: 2%; NS1 inh: -4%; MARV entry inh: -18%; RE007 growth inh: -13%

Results for N#C/C(=C\C=C\c1ccccc1[N+](=O)[O-])C(=O)NCc1ccccc1 ?
SARS PLP yeast: -4%; StopGo reporter: -39%; LASV entry inh: 10µM*; NS1 inh: -4%; MARV entry inh: inconclusive; RE007 growth inh: 13%

What do the screens show for `COc1ccc(OCC(O)Cn2c(N3CCCCC3)nc3c2c(=O)n(C)c(=O)n3C)cc1` (stereo unspecified)?
SARS PLP yeast: 1%; StopGo reporter: 0%; LASV entry inh: inconclusive; NS1 inh: 1%; MARV entry inh: inconclusive; RE007 growth inh: 13%

How did CC(C)NC(=O)CSc1nc(N)c(NC(=O)c2ccccc2F)c(=O)[nH]1 do in these assays?
Cruzain noTriton: 7%; SARS PLP yeast: 1%; StopGo reporter: -8%; Cruzain inh Det: -1.1%; LASV entry inh: -2%; NS1 inh: -10%; MARV entry inh: 16%; RE007 growth inh: -3%

Results for O=C(CSc1ccc2nnc(-c3cccnc3)n2n1)Nc1ccccc1 ?
SARS PLP yeast: 2%; StopGo reporter: 1%; NS1 inh: 2%; RE007 growth inh: -1%

How did CCCn1c(N)c(N(CCOC)C(=O)c2ccc(N(C)S(=O)(=O)c3ccc(C)cc3)cc2)c(=O)[nH]c1=O do in these assays?
SARS PLP yeast: -4%; StopGo reporter: -3%; LASV entry inh: 11%; MARV entry inh: inconclusive; RE007 growth inh: 4%

How did O=C(Nc1ccc(S(=O)(=O)N2CCCC2)cc1)C1CC(=O)N(CCc2ccc(F)cc2)C1 (stereo unspecified) do in these assays?
SARS PLP yeast: 5%; StopGo reporter: 1%; LASV entry inh: 8%; MARV entry inh: -23%; RE007 growth inh: -15%

How did Cc1ccc(S(=O)(=O)N2CCN(CC(=O)Nc3ccc(N4CCOCC4)cc3)CC2)cc1C do in these assays?
Cruzain noTriton: 21%; SARS PLP yeast: inconclusive; StopGo reporter: -10%; Cruzain inh Det: -3.3%; LASV entry inh: -12%; NS1 inh: 5%; MARV entry inh: 28%; RE007 growth inh: 20%

How did COc1ccc(N2C(=O)C3CCCN3C2=S)cc1 (stereo unspecified) do in these assays?
SARS PLP yeast: -3%; StopGo reporter: 3%; LASV entry inh: 11%[46.1 µM]; NS1 inh: -7%; MARV entry inh: 9%[46.1 µM]; RE007 growth inh: -14%

How did COc1ccc(C2(c3ccc(OC)cc3)NC(=O)N(CC(=O)Nc3cc(C)on3)C2=O)cc1 do in these assays?
SARS PLP yeast: -19%; StopGo reporter: -4%; LASV entry inh: inconclusive; MARV entry inh: -25%[46.1 µM]; RE007 growth inh: -2%

How did N/C(Cc1ccc([N+](=O)[O-])cc1)=N\OC(=O)CC1CCCCC1 do in these assays?
Cruzain noTriton: 6%; SARS PLP yeast: -91%; StopGo reporter: -15%; Cruzain inh Det: -1.7%; LASV entry inh: 2%; NS1 inh: -52%; MARV entry inh: inconclusive; RE007 growth inh: -26%

Results for CC(C)(C)c1ccc(S(=O)(=O)N2CCC(CO)(CC3CCCCO3)CC2)cc1 (stereo unspecified) ?
SARS PLP yeast: -1%; StopGo reporter: -19%; LASV entry inh: inconclusive; NS1 inh: -7%; MARV entry inh: inconclusive; RE007 growth inh: 4%

How did O=C(Nc1ccccc1C(F)(F)F)c1cc(-c2ccc(O)cc2)on1 do in these assays?
Cruzain noTriton: 16%; SARS PLP yeast: -9%; StopGo reporter: 43%[activator]; Cruzain inh Det: -5.8%; LASV entry inh: inconclusive; NS1 inh: -63%; MARV entry inh: 23%; RE007 growth inh: -2%

How did C=CCOc1ccccc1CN1CCCN(C)CC1 do in these assays?
SARS PLP yeast: 1%; StopGo reporter: 2%; NS1 inh: -6%; RE007 growth inh: 23%

How did CCn1cc(C(=O)N(CCC(C)C)c2c(N)n(Cc3ccccc3)c(=O)[nH]c2=O)c(=O)c2ccc(C)nc21 do in these assays?
SARS PLP yeast: -5%; StopGo reporter: -3%; LASV entry inh: -19%[46.1 µM]; MARV entry inh: -2%[46.1 µM]; RE007 growth inh: -11%

How did COc1ccccc1Nc1nc(N)nc(CN2CCN(Cc3ccccc3)CC2)n1 do in these assays?
Cruzain noTriton: -8%; SARS PLP yeast: -2%; StopGo reporter: -18%; Cruzain inh Det: -2.3%; LASV entry inh: 2%; NS1 inh: 5%; MARV entry inh: inconclusive; RE007 growth inh: -13%

Results for CC(=O)c1ccc(NC(=O)C2=CC(c3ccc(C)cc3)=NS(=O)(=O)N2C)cc1 ?
Cruzain noTriton: inconclusive; StopGo reporter: inconclusive; Cruzain inh Det: -4.6%; LASV entry inh: -12%[46.1 µM]; MARV entry inh: inconclusive

Results for O=c1[nH]c(/C=C/c2ccccc2Cl)c([N+](=O)[O-])c(=O)[nH]1 ?
SARS PLP yeast: -4%; StopGo reporter: inconclusive; LASV entry inh: 2%; NS1 inh: -4%; MARV entry inh: -2%; RE007 growth inh: -8%

How did CN(C)S(=O)(=O)N1CCN(C(=O)c2cccc(Br)c2)CC1 do in these assays?
Cruzain noTriton: 5%; SARS PLP yeast: -3%; StopGo reporter: 9%; Cruzain inh Det: 3.9%; LASV entry inh: -8%; NS1 inh: 4%; MARV entry inh: 10%; RE007 growth inh: -6%

How did COc1ccc(-n2c(C)nc3c(cnn3-c3ccc(Cl)cc3)c2=O)cc1 do in these assays?
Cruzain noTriton: 11%; SARS PLP yeast: -13%; StopGo reporter: inconclusive; Cruzain inh Det: -5.1%; LASV entry inh: -8%; NS1 inh: -54%; MARV entry inh: inconclusive; RE007 growth inh: 28%

Results for CCCCN1C(=O)C(O)(CC(=O)c2ccc(CC)cc2)c2cc(Br)ccc21 (stereo unspecified) ?
Cruzain noTriton: 7%; StopGo reporter: -8%; Cruzain inh Det: -13%; LASV entry inh: 5%[46.1 µM]; MARV entry inh: inconclusive

How did CC(C)OCC1CC(CC(=O)NC(=S)Nc2cccc([N+](=O)[O-])c2)C(=O)O1 (stereo unspecified) do in these assays?
Cruzain noTriton: -1%; SARS PLP yeast: 1%; Cruzain inh Det: -2.6%; LASV entry inh: -17%; NS1 inh: 1%; MARV entry inh: 2%; RE007 growth inh: 0%
